Source: PubChem BioAssay (several laboratories)
RGS16-Gao = regulators of human RGS16-Galphao interaction | O15492+P09471 | bead-based flow cytometry RGS16-Galphao binding, fluorescence; actives lie on both sides | binding response (% of control), % at 10 µM | hit rate 0.38% among 220,000 | AID 1441;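 active = below 25% or above 175%, edge rows of some plates excepted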;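 note: Galphao activated by GDP with aluminum fluoride before binding; 100% = wells without compound and 0% = beads without RGS; some results beyond the cut were filed as inactive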
Insulin prom inh = TRM-6 insulin promoter activity inhibition; TRM-6 cells (human fetal islet line), insulin promoter-eGFP reporter, imaging; reporter expression induced with tamoxifen; inhibition, % at 2 µM; hit rate 0.9% among 130,000; AID 1273;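 active = inhibition above the mean plus 3 SD, with well images judged a real hit on visual review, cut at about 60% in these data, passing the limit was not always enough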
GALR2 ag = GALR2 (human) receptor agonism. O43603. GALR2-expressing cells, agonist activation read-out. activation, %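 (tested at 5 µM)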. hit rate 0.48% among 140,000. AID 803;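 active = above mean plus 3 SD of all compounds, about 5% in these data, not always enough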;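 note: 0% = vehicle buffer wells and 100% = reference agonist at full effect; tested in CHO reporter cells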
HSV replic up = increases HSV replication in cells; HSV replication augmentation in cells, fold increase; maximum fold increase; hit rate 0.005% among 220,000;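 active = peak rise of 1.5-fold or more in the series; tested in PC3 cells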;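 note: first round at 10 µM; read as green reporter fluorescence; hits show the peak of a series up to 25 µM; 1 = signal of infected wells without compound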
PKD1 kinase inh = PKD1 (human) kinase inhibition; PKD1 kinase fluorescence polarization assay; inhibition, %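 (about 10 µM by stock and volumes)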; hit rate 0.056% among 200,000;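 active = inhibition of 50% or more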;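 note: controls were vehicle for no effect and a reference inhibitor for full effect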
Target sequence (Q15139 whole entry, looked up): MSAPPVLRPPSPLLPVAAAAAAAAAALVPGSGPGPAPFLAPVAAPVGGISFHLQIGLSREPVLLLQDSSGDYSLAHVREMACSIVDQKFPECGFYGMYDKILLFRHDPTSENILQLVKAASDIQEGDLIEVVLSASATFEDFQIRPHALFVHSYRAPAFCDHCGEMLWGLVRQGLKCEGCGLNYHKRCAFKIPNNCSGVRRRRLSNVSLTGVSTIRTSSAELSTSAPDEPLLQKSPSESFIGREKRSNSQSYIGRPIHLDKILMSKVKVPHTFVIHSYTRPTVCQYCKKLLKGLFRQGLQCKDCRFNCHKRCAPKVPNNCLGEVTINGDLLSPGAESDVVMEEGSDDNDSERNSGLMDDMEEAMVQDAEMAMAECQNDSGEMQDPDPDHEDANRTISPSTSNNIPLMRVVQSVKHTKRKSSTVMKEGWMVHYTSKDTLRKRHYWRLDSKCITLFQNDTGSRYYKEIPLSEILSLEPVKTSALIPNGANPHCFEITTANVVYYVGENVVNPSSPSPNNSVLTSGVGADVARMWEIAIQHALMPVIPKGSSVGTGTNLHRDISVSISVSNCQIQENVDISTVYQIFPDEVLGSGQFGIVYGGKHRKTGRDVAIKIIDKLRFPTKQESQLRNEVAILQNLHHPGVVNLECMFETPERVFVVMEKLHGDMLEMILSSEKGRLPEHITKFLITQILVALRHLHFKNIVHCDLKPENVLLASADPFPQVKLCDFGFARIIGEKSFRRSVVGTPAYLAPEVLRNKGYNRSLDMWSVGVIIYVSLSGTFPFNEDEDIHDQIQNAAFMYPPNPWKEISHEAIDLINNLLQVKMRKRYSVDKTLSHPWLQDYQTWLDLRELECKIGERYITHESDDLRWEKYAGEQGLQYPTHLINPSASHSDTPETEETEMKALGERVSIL
Insulin prom inh cell count = second read-out of Insulin prom inh, no call of its own (marks repeat the call); normalized cell count, %; measured here: cell count, toxicity; reference of the scale not given here;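 cells exposed to compound for 48 h; stained nuclei by imaging scaled within each plate; lower means fewer cells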
HSV replic up primary fold = recorded beside HSV replic up, whose call it bears; fold increase; compound at 10 µM; measured here: primary screen fold increase 10 uM; tested in PC3 cells;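 GFP signal in the first replicate; 1 = infected wells without compound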
An asterisk follows results filed as active; i = inactive; . = no result given.

SMILES | RGS16-Gao | Insulin prom inh | Insulin prom inh cell count | GALR2 ag | HSV replic up | HSV replic up primary fold | PKD1 kinase inh
Cc1ccc(C(=O)c2cc([N+](=O)[O-])ccc2N2CCOCC2)c(C)c1 | 100 | -91 | 8 | 0.9 | i | 0.45 | 5
Cc1ccc(NC(=O)CSc2nnc(COc3ccccc3C)o2)cc1 | 100 | 14 | 94 | . | i | 0.62 | -5
Cc1[nH]c(=S)[nH]c(=O)c1Cc1ccc(OCC(C)C)cc1 | 101 | . | . | . | i | 1.1 | -2
COC(=O)c1cc(NC(=O)c2cccs2)ccc1N1CCOCC1 | 105 | . | . | . | i | 0.85 | -1
COc1c(-c2ccc(O)c(O)c2)oc2cc(O)cc(O)c2c1=O | 112 | . | . | . | i | 0.93 | .
C1COCCNCCOCCOCCN1 | 106 | 11 | 86 | -1.9 | i | 1.1 | -6
Fc1ccc(OCCOCCOc2cccc3[nH]ccc23)cc1 | 100 | . | . | . | i | 0.98 | 1
COc1ccc(-n2nnnc2SCC(=O)N2CCOCC2)cc1 | 96 | . | . | -0.4 | i | 0.89 | -4
O=C(COC(=O)c1ccccc1Br)NCCc1ccc(F)cc1 | 36 | 12 | 98 | -0.4 | i | 1 | -3
Cc1cc(C)c(S(=O)(=O)Nc2ccc(OCC(=O)O)cc2)c(C)c1 | 98 | . | . | -0.6 | i | 0.89 | -3
O=C(O)c1ccc(N2CCCCCC2)c(N2C(=O)c3ccccc3C2=O)c1 | 97 | -15 | 104 | -0.8 | i | 0.88 | -12
CS(=O)(=O)N1CCCC(C(=O)NCCCN2CCN(Cc3ccccc3)CC2)C1 (stereo not given) | 103 | -21 | 72 | 0.0 | i | 0.85 | -7
CC(C)(C)c1ccc(C(=O)NCCCN2CCN(CCCNC(=O)c3ccc(C(C)(C)C)cc3)CC2)cc1 | 100 | -3 | 100 | 1.4 | i | 0.5 | 0
COc1ccc(OC)c(/C=N/NC(=O)CCc2ccc(O)c(O)c2)c1 | 92 | 17 | 85 | -0.3 | i | 0.88 | 4
O=C(N1CCOCC1)N(CCN1CCOCC1)Cc1cccc2ccccc12 | 101 | -56 | 91 | -2.3 | i | 0.94 | -3
Cc1c(C(=O)Nc2ccccc2)sc2nc(-c3ccccc3)cn12 | 103 | 26 | 153 | 0.3 | i | 0.82 | -3
NS(=O)(=O)c1ccc(NC(=O)C2CCCN(S(=O)(=O)c3ccc(F)cc3)C2)cc1 (stereo not given) | 102 | -20 | 356 | -2.4 | i | 1 | -9
CCc1cccc2c(C(=O)CSc3nncn3-c3ccc(OC)cc3)c[nH]c12 | 108 | -6 | 90 | 0.9 | i | 0.86 | 3
C=CCn1c(SCC(=O)NC2CCS(=O)(=O)C2)nnc1-c1cc2c(s1)CCC(CC)C2 (stereo not given) | 96 | . | . | -1.4 | i | 0.89 | -2
Cc1nn(C2CCS(=O)(=O)C2)c(Cl)c1/C=C/C(=O)OCC(=O)N(C)C (stereo not given) | 99 | . | . | . | i | 0.94 | -2
CC(C)(C)C(=O)CSc1ncnc2sc3c(c12)CCC3 | 101 | . | . | . | i | 0.96 | 1
CC1Cc2cc(/C(O)=C3/C(=O)C(=O)N(CCCN(C)C)C3c3ccncc3)ccc2O1 (stereo not given) | 105 | -220 | 67 | -1.2 | i | 1 | -2
CSc1nc2nc3c(c(=O)n2[nH]1)CCCC3 | 95 | 24 | 45 | -1.4 | i | 0.96 | -2
Cc1c(NC(=O)C(C)OC(=O)c2cccc(S(=O)(=O)N3CCOCC3)c2)c(=O)n(-c2ccccc2)n1C (stereo not given) | 97 | . | . | . | i | 0.94 | .
CCOc1ccc(NC(=S)N(CCc2c(C)[nH]c3ccc(C)cc23)Cc2cccnc2)cc1 | . | -24 | 116 | 0.0 | . | . | -16
COc1ccccc1N1CCN(C(c2ccc(N(C)C)cc2)c2nnnn2CCc2ccccc2)CC1 (stereo not given) | 63 | 46 | 124 | -2.6 | i | 1.1 | -3
CCC12CN(C(=O)c3ccc(OC)cc3)CC(CC)(CN(C(=O)c3ccc(OC)cc3)C1)C2=O | 98 | -8 | 132 | -0.6 | i | 0.99 | 2
C=CCn1c(SCc2cc(=O)n3ccsc3n2)nc2ccccc2c1=O | 102 | . | . | . | i | 1 | -4
Cc1ccc(OCCNC(=O)/C=C/c2ccccc2)cc1C | 120 | 28 | 71 | -0.4 | i | 1.1 | -5
Cc1ccccc1NC(=O)Nc1nnc(CC(=O)NCc2ccccc2)s1 | 97 | -13 | 84 | 1.0 | i | 1 | -6
CCOc1c(Nc2ccc(C(C)C)cc2)c(=O)c1=O | 90 | . | . | . | i | 0.9 | .
COc1cccc(NC(=O)CSc2nnc(Cn3nnc4ccccc43)n2C)c1 | 109 | 37 | 84 | -0.1 | i | 0.87 | -7
COC(=O)Cn1c(=NC(=O)c2ccc(OC)cc2)sc2cc(OC)ccc21 | 103 | . | . | 0.6 | i | 0.97 | 7
O=C(c1cccs1)N(Cc1ccco1)Cc1cc2ccccc2[nH]c1=O | 83 | . | . | 0.4 | i | 0.87 | 0
CCC1(C)Cc2c(sc3c2c(=O)n(C)c2nnc(SCC(=O)c4ccccc4)n32)CO1 (stereo not given) | . | -155 | 39 | -1.2 | i | 0.9 | 1
NS(=O)(=O)c1ccc(N2C(=O)C3C4CC(C(Br)C4Br)C3C2=O)cc1 (stereo not given) | 105 | -11 | 154 | . | i | 1.1 | -4
O=C(O)CCc1nnc2n(Cc3ccc(F)cc3)c(=O)c3ccccc3n12 | 104 | . | . | 0.1 | i | 1.1 | -2
Cc1nn(CC(=O)Nc2ccc3c(c2)OCO3)c(C)c1[N+](=O)[O-] | 100 | . | . | . | i | 0.98 | 1
Cc1ccc(Nc2nc(N)nc(CN3CCN(C)CC3)n2)cc1 | 100 | . | . | -0.4 | i | 0.73 | -8
Cc1nc(N2CCN(c3ccccn3)CC2)c2c(C)c(C(=O)Nc3ccc(F)cc3F)sc2n1 | 106 | 56 | 114 | . | i | 0.84 | 4

Random excerpt: 5 compounds from above
SMILES | RGS16-Gao | Insulin prom inh | Insulin prom inh cell count | GALR2 ag | HSV replic up | HSV replic up primary fold | PKD1 kinase inh
Cc1nn(CC(=O)Nc2ccc3c(c2)OCO3)c(C)c1[N+](=O)[O-] | 100 | . | . | . | i | 0.98 | 1
NS(=O)(=O)c1ccc(N2C(=O)C3C4CC(C(Br)C4Br)C3C2=O)cc1 (stereo not given) | 105 | -11 | 154 | . | i | 1.1 | -4
COc1cccc(NC(=O)CSc2nnc(Cn3nnc4ccccc43)n2C)c1 | 109 | 37 | 84 | -0.1 | i | 0.87 | -7
O=C(O)CCc1nnc2n(Cc3ccc(F)cc3)c(=O)c3ccccc3n12 | 104 | . | . | 0.1 | i | 1.1 | -2
CCC1(C)Cc2c(sc3c2c(=O)n(C)c2nnc(SCC(=O)c4ccccc4)n32)CO1 (stereo not given) | . | -155 | 39 | -1.2 | i | 0.9 | 1

(next part)
SMILES | RGS16-Gao | Insulin prom inh | Insulin prom inh cell count | GALR2 ag | HSV replic up | HSV replic up primary fold | PKD1 kinase inh
CCOc1cc(OCC)cc(C(=O)Nc2cccc(C(C)=O)c2)c1 | 93 | 7 | 114 | -0.1 | i | 1.1 | -2
COc1ccc(CNC[C@@H](CCCCN(C)Cc2ccc(OC)cc2)N2C[C@H](c3ccccc3)N(CCc3ccc(Cl)c(Cl)c3)C(=O)C2=O)cc1 | 87 | . | . | . | i | 0.45 | 4
CC1CCCC(C)N1C(=O)COc1ccc(F)cc1 (stereo not given) | 111 | 28 | 60 | . | i | 1 | 3
COc1ccc(-c2csc(NS(=O)(=O)c3ccc([N+](=O)[O-])cc3)n2)cc1 | 103 | -22 | 115 | -1.9 | i | 0.95 | 6
CSCCC(NC(=O)c1ccccc1Br)C(=O)NCC1CCCCC1 (stereo not given) | 111 | -18 | 139 | . | i | 0.92 | -3
O=C(OCC(F)(F)C(F)F)c1ccccc1C(=O)Oc1ccc(F)cc1F | 97 | -73 | 120 | -1.1 | i | 0.85 | 1
Cc1ccccc1NC(=O)c1snc2c(=O)[nH]cnc12 | 100 | . | . | . | i | 0.99 | -4
O=C1CCCCN1CCc1c[nH]c2ccccc12 | 101 | i | 23 | -1.1 | i | 1 | 5
O=[N+]([O-])c1nn(-c2ccccc2)n(O)c1=NCCc1ccccc1 | 101 | 3 | 139 | -0.3 | i | 1 | 9
CC[C@@H]1CC=C[C@H]2[C@H]1C(=O)N(Cc1ccccc1)[C@H]2c1ccc(C(F)(F)F)cc1 | 98 | . | . | . | i | 0.78 | .

Two of these compounds in another layout.
Molecule,RGS16-Gao,Insulin prom inh,Insulin prom inh cell count,GALR2 ag,HSV replic up,HSV replic up primary fold,PKD1 kinase inh
COc1ccc(CNC[C@@H](CCCCN(C)Cc2ccc(OC)cc2)N2C[C@H](c3ccccc3)N(CCc3ccc(Cl)c(Cl)c3)C(=O)C2=O)cc1,87,.,.,.,i,0.45,4
CC1CCCC(C)N1C(=O)COc1ccc(F)cc1 (stereo not given),111,28,60,.,i,1,3

Additional compounds follow:
SMILES | RGS16-Gao | Insulin prom inh | Insulin prom inh cell count | GALR2 ag | HSV replic up | HSV replic up primary fold | PKD1 kinase inh
COc1ccc(C(=O)Nc2ccccc2-c2nnn(CC(=O)N3CCOCC3)n2)cc1 | 98 | . | . | . | i | 1 | 7
O=C(C1CCN(C2CC(=O)N(c3cccc(Cl)c3)C2=O)CC1)N1CCCCCC1 (stereo not given) | 104 | 62 | 144 | -1.5 | i | 0.86 | 3
O=C(/C=C/c1ccc(Cl)c(Cl)c1)NC1=NCCS1 | 104 | . | . | . | i | 0.97 | -6
O=C(Nc1ncc(Cc2ccccc2)s1)c1cccs1 | 109 | -48 | 118 | -0.8 | i | 0.97 | -6
COc1cc(NC(=O)c2cccnc2)ccc1-c1cc2ccccc2oc1=O | 99 | . | . | . | i | 0.84 | 4
CC1=NOC(=O)/C1=C\c1ccc(-c2ccc(Br)cc2C(=O)O)o1 | 99 | . | . | . | i | 1.1 | 1
O=C(CN1CCN(Cc2ccccc2)CC1)N1N=CCC1c1ccccc1 (stereo not given) | 109 | . | . | . | i | 1 | -1
O=C(Nc1ccccc1)c1ccc2c(c1)OCO2 | 108 | 21 | 96 | -1.1 | i | 0.97 | 0
CSCCC(NS(=O)(=O)c1ccc(C)cc1)C(=O)NC1CCCCC1 (stereo not given) | 98 | -79 | 87 | . | i | 0.99 | 0
CC(C)CN1CN(Cc2ccco2)CNC1=S | 102 | -21 | 149 | -1.7 | i | 0.9 | -3
CCOc1ccc(N=c2scc(-c3ccc(OC)cc3)n2CCO)cc1 | 109 | 26 | 219 | -2.8 | i | 0.9 | 11
CCOC(=O)c1ccc(NC(=S)N2CCSC2c2ccc(OC)cc2)cc1 (stereo not given) | 105 | . | . | 1.0 | i | 0.96 | -11
Cc1nn(-c2ccccc2)c2nc(-c3ccncc3)cc(C(=O)NCc3ccco3)c12 | 100 | . | . | -0.9 | i | 0.98 | -12
CCOC1CS(=O)(=O)CC1OCC (stereo not given) | 100 | -45 | 76 | -2.8 | i | 0.9 | 2
C/C(CC(=O)Nc1cccc2c1CCCC2)=N\NC=O | 112 | . | . | . | i | 1.1 | -4
COC(=O)CN1C(=O)N/C(=C/c2ccccc2OC)C1=O | 104 | 17 | 196 | . | i | 1.1 | -10
NC1CCCCC1N=Cc1c(O)n(CCc2ccc(F)cc2)c(=O)[nH]c1=O (stereo not given) | 92 | 0 | 218 | -0.2 | i | 1 | 2
Nc1nc(CSc2n[nH]c(-c3ccccc3)n2)nc(Nc2ccccc2)n1 | 100 | 48 | 91 | -1.6 | i | 0.9 | 3
CCCCCn1c(N)c(-c2nc3ccccc3s2)c2c([N+](=O)[O-])nn(C)c(=O)c21 | 103 | 29 | 65 | -1.5 | i | 0.96 | -9
CCc1ccc(CNC(=O)CN2C(=O)COc3ccccc32)cc1 | 100 | 0 | 69 | -0.8 | i | 0.79 | -11
CC(Nc1ccc(N2CCOCC2)cc1)C(=O)N1c2ccccc2CC1C (stereo not given) | 96 | . | . | . | i | 1.2 | .
O=C(Cn1cc([N+](=O)[O-])cn1)NCc1cc2ccccc2[nH]1 | 91 | . | . | -0.2 | i | 0.93 | 8
